YB-1 expr inh – inhibitors of YB-1 gene expression, primary screen, cell-based, fluorescence; U2OS, qRT-PCR YB-1 vs CDIP delta delta Cp, 16 h; active compounds read high; zero = DMSO, each unit about twofold; delta delta Cp (YB-1 minus CDIP) (test concentration not listed); 30,000 compounds, 0.37% hits;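 active = delta delta Cp rounded down to an integer at or above 3, about 3 SD of DMSO wells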;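 also: higher means less YB-1 transcript or more CDIP transcript relative to DMSO; stock transfer was 100 nL into about 100 µL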
MITF inhib – inhibitors of MITF, primary screen, MITF inhibitor project, cell-based, luminescence | 37,000 compounds, 0.28% hits | inhibition, % (no concentration beside the values) | TRPM1 promoter luciferase, 24 h;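 active = most replicates at 85% or more, or half of them and the mean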;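 also: human melanocyte line stably carrying TRPM1 promoter luciferase reporter; 0% = vehicle wells and 100% = a positive control; the first replicate is given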
Shh pathway inh – Hedgehog pathway signaling inhibitors, primary screen, luminescence, Shh-LIGHT2 cells, Gli-luciferase. 22,000 compounds, 2.1% hits. inhibition, % (no concentration beside the values). Shh-LIGHT2 Gli-luciferase reporter, 30 h;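 active = replicate mean of 65% or more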;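 also: pathway switched on by Shh-conditioned medium diluted 1 in 25 in low serum; 100 nL library stock added to about 40 µL; 0% = median of neutral wells and 100% = positive control level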
PD-1 reversal – activators reversing PD-1 mediated T-cell inhibition, primary screen, luminescence, primary human CD4 T cells, PD-L1 beads. CellTiter-Glo 96 h. activation, % (test concentration not listed). 29,000 tested, under 10 active. AID 2316, 2010;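 active = replicate mean of 50% or more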;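 also: 0% = median vehicle wells and 100% = positive control; 100 nL library stock added to about 50 µL; numbers are from one replicate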
Numbers without * were called inactive; x = not tested or not shown. The list is partial (hit frequency here may not be typical).

Screens in order – YB-1 expr inh, MITF inhib, Shh pathway inh, PD-1 reversal
> Cc1cc(C(=O)Nc2cccc3c2O[C@@H](CN(C)Cc2ccccc2)[C@@H](C)CN([C@H](C)CO)C3=O)n(C)n1
 : 0.038, -8, 0, 0.0
> COc1ccc(NC(=O)N(C)C[C@@H]2Oc3c(NC(=O)CCCCCC(=O)Nc4ccccc4N)cccc3C(=O)N([C@H](C)CO)C[C@H]2C)cc1
 : -0.057, -4, x, 0.9
> C[C@@H]1CN([C@H](C)CO)C(=O)Cc2cc(NC(=O)Nc3ccccc3)ccc2O[C@H]1CN(C)Cc1ccc(Cl)c(Cl)c1
 : -0.12, -3, -42, 2.0
> C[C@H]1CN([C@@H](C)CO)C(=O)Cc2cc(NC(=O)C3CC3)ccc2O[C@@H]1CN(C)Cc1ccc(Oc2ccccc2)cc1
 : 0.1, 4, -8, 1.5
> COc1ccc2c(c1)CCC1C2CCC2(C)C(=O)CCC12 (stereo not drawn)
 : -0.59, -36, 16, -0.9
> CNC[C@@H]1Oc2ccc(NS(=O)(=O)c3ccc(F)cc3)cc2C(=O)N([C@@H](C)CO)C[C@H]1C
 : -0.023, 2, x, 1.2
> COc1ccc2c(c1)C(O)(CC(=O)c1ccc3ccccc3c1)C(=O)N2 (stereo not drawn)
 : x, 0, x, 2.0
> C[C@@H]1CCCCO[C@H](CN(C)S(=O)(=O)c2ccccc2)[C@@H](C)CN([C@H](C)CO)C(=O)c2cc(NC(=O)Nc3cccc4ccccc34)ccc2O1
 : 0.14, -5, 1, x
> COc1cccc(N(CC(=O)Nc2ccc(OC)c(Cl)c2)S(C)(=O)=O)c1
 : x, -5, x, 2.8
> C[C@H]1CN([C@@H](C)CO)C(=O)c2cccc(NS(=O)(=O)c3ccc(F)cc3)c2O[C@H]1CN(C)S(=O)(=O)c1ccccc1
 : -0.11, -3, -11, x
> O/N=C/c1ccc(-c2cc(C(F)(F)F)cc(C(F)(F)F)c2)o1
 : -0.074, -10, 43, -0.9
> C[C@@H]1CN([C@@H](C)CO)C(=O)Cc2cc(NC(=O)Nc3ccc(F)cc3)ccc2O[C@@H]1CN(C)S(C)(=O)=O
 : 0.32, -5, 13, 1.5
> O=C(NCc1ccco1)C1CC(c2ccccc2Cl)=NO1 (stereo not drawn)
 : x, -34, x, 1.3
> COc1ccc(OC)c(NC(=O)CC2Sc3ccccc3NC2=O)c1 (stereo not drawn)
 : x, -2, x, -1.2
> CC(C)NC(=O)Nc1cccc2c1O[C@H](CN(C)S(=O)(=O)c1ccc(Cl)cc1)[C@@H](C)CN([C@H](C)CO)C2=O
 : -0.12, 1, -4, 0.7

Screens in order – YB-1 expr inh, MITF inhib, Shh pathway inh, PD-1 reversal
> C[C@@H]1CN([C@@H](C)CO)C(=O)c2cc(NC(=O)Nc3ccc(C(F)(F)F)cc3)ccc2O[C@H]1CN(C)Cc1ccc2c(c1)OCO2
 : -0.067, -3, x, -3.4
> Cc1cc(NC(=O)c2nn3c(C(F)(F)F)cc(-c4ccccc4)nc3c2Cl)nn1CC(=O)N1CCOCC1
 : x, 2, x, -0.9
> C[C@@H]1CN([C@@H](C)CO)C(=O)c2cc(N(C)C)ccc2O[C@H]1CN(C)CC1CCCCC1
 : 0.066, 9, 8, 0.3
> C[C@@H]1CN([C@@H](C)CO)C(=O)c2cc(NC(=O)NC3CCCCC3)ccc2O[C@H]1CN(C)Cc1ccccc1
 : -0.28, 2, -45, x
> C[C@@H]1CCCCO[C@@H](CN(C)Cc2ccc(Cl)c(Cl)c2)[C@@H](C)CN([C@H](C)CO)C(=O)c2cc(NC(=O)Nc3ccc4c(c3)OCO4)ccc2O1
 : -0.024, 19, 18, x
> C[C@H]1CN([C@@H](C)CO)C(=O)Cc2cc(NS(=O)(=O)c3ccc(F)cc3)ccc2O[C@@H]1CN(C)Cc1ccc2c(c1)OCO2
 : 0.029, 5, 12, x
> COc1ccc(Cl)cc1NC(=O)CCCN1C(=O)c2ccccc2C1=O
 : x, -14, x, -0.2
> O=C(CCN1C(=O)c2ccccc2S1(=O)=O)NCc1ccco1
 : x, -17, x, 1.2
> CCOC(=O)c1c(NC(=O)C(C)n2nc(C)c([N+](=O)[O-])c2C)sc(C)c1C (stereo not drawn)
 : x, 3, x, -1.5
> C[C@@H]1CN([C@@H](C)CO)C(=O)Cc2cc(N(C)C)ccc2O[C@@H]1CN(C)Cc1ccc2c(c1)OCO2
 : 0.14, -11, 20, -2.3
> COc1ccc(S(=O)(=O)N(C)C[C@H]2Oc3ccc(NS(=O)(=O)c4ccc(C)cc4)cc3C(=O)N([C@H](C)CO)C[C@H]2C)cc1
 : 0.44, -15, 16, 0.8
> C/C1=C/CC/C(CO)=C\[C@H]2OC(=O)C(CN3CCCC3C(=O)O)[C@@H]2[C@@H](OC(=O)C(C)CO)C1 (stereo partly drawn)
 : 1.8, x, 23, x
> C[C@@H]1CN([C@H](C)CO)C(=O)c2cccc(NS(=O)(=O)c3ccc(F)cc3)c2O[C@@H]1CN(C)C(=O)Nc1ccc(C(F)(F)F)cc1
 : -0.0068, 48, 12, -4.1
> CC(C)NC(=O)Nc1ccc2c(c1)C(=O)N([C@@H](C)CO)C[C@H](C)[C@@H](CN(C)S(=O)(=O)c1ccc(F)cc1)O2
 : 1, 3, x, 1.0
> C[C@@H]1CCCCO[C@H](CN(C)S(=O)(=O)c2ccc(Cl)cc2)[C@@H](C)CN([C@H](C)CO)C(=O)c2cc(NS(=O)(=O)c3ccccc3)ccc2O1
 : -0.15, 14, 13, x

3 records drawn at random from those above:
Screens in order – YB-1 expr inh, MITF inhib, Shh pathway inh, PD-1 reversal
> C[C@@H]1CCCCO[C@H](CN(C)S(=O)(=O)c2ccc(Cl)cc2)[C@@H](C)CN([C@H](C)CO)C(=O)c2cc(NS(=O)(=O)c3ccccc3)ccc2O1
 : -0.15, 14, 13, x
> C[C@@H]1CN([C@@H](C)CO)C(=O)c2cc(N(C)C)ccc2O[C@H]1CN(C)CC1CCCCC1
 : 0.066, 9, 8, 0.3
> CCOC(=O)c1c(NC(=O)C(C)n2nc(C)c([N+](=O)[O-])c2C)sc(C)c1C (stereo not drawn)
 : x, 3, x, -1.5

Next structures:
Screens in order – YB-1 expr inh, MITF inhib, Shh pathway inh, PD-1 reversal
> C[C@@H]1CN([C@@H](C)CO)C(=O)c2cccc(NS(=O)(=O)c3ccccc3)c2O[C@@H]1CN(C)Cc1ccc(C(=O)Nc2ccccc2N)cc1
 : -0.72, 22, x, -0.2
> COC(=O)COc1cccc(NC(=O)c2cc(OC)c(OC)c(OC)c2)c1
 : x, -18, x, -0.5
> CS(=O)(=O)N(CC(=O)NC1CC2CCC1C2)c1cc(Cl)cc(Cl)c1 (stereo not drawn)
 : x, -11, x, -2.6
> COc1ccc(-c2cc(C)nc(SCC(=O)N3c4ccccc4Sc4ccccc43)n2)cc1
 : x, 2, x, 4.6
> Cc1noc(C)c1S(=O)(=O)Nc1ccc2c(c1)CC(=O)N([C@@H](C)CO)C[C@@H](C)[C@@H](CN(C)CC1CCCCC1)O2
 : 0.0084, 1, 5, x
> COc1ccc(C)cc1NC(=O)NCc1ccco1
 : x, -11, x, -3.6
> Cc1ccc(NC(=O)CC2NC3CCCCC3NC2=O)cc1Cl (stereo not drawn)
 : x, -4, x, 0.3
> COC(=O)c1cccc(OCC(O)Cn2ccnc2)c1 (stereo not drawn)
 : x, 6, x, 2.1
> Cc1onc(-c2ccccc2Cl)c1C1=NCCO1
 : -0.18, 11, -58, 0.1
> Cc1ccc(-c2nc3ncccc3o2)cc1NC(=O)COc1ccc(C2CCCCC2)cc1
 : x, 6, x, -7.8
> O=C(Nc1ccc(Cl)cc1)Nc1ccc(S(=O)(=O)Nc2ncccn2)cc1
 : x, -6, x, 2.0
> C[C@H]1CN([C@@H](C)CO)C(=O)c2cc(NC(=O)Cc3ccccc3)ccc2O[C@H]1CN(C)C(=O)Nc1cccc2ccccc12
 : -0.011, -6, -21, -1.1
> C[C@H]1CN([C@@H](C)CO)C(=O)c2cccc(NC(=O)c3cnccn3)c2O[C@H]1CN(C)C(=O)Nc1ccccc1
 : -0.31, -16, 15, x
> C[C@H]1CN([C@@H](C)CO)C(=O)c2cc(NC(=O)CCCN(C)C)ccc2O[C@H]1CN(C)CC1CCCCC1
 : 0.04, 0, 26, 0.3
> C[C@@H]1CN([C@H](C)CO)C(=O)Cc2cc(NC(=O)Cc3cn(C)c4ccccc34)ccc2O[C@H]1CN(C)S(C)(=O)=O
 : 0.053, 8, x, x

mol	YB-1 expr inh	MITF inhib	Shh pathway inh	PD-1 reversal
Cc1nc(-c2ccccc2O)n(CCN2CCOCC2)n1	x	-24	x	1.6
C[C@@H]1CN([C@H](C)CO)C(=O)Cc2cc(NS(=O)(=O)c3ccc(Cl)cc3)ccc2O[C@H]1CN(C)Cc1ccc(Oc2ccccc2)cc1	-0.14	14	35	-2.0
C[C@@H]1CN([C@H](C)CO)C(=O)Cc2cc(NC(=O)CCN3CCOCC3)ccc2O[C@@H]1CN(C)S(C)(=O)=O	-0.22	-12	x	0.1
Cc1c(O)c(C(=O)c2nn[nH]n2)c(=O)n(-c2ccccc2)c1-c1ccccc1	0.4	5	-6	4.1
CC(C)NC(=O)N(C)C[C@H]1Oc2ccc(NS(=O)(=O)c3ccc(Cl)cc3)cc2C(=O)N([C@H](C)CO)C[C@@H]1C	-0.048	-6	-7	0.6
Cc1noc(C)c1S(=O)(=O)N(C)C[C@@H]1Oc2ccc(NC(=O)Nc3cccc4ccccc34)cc2CC(=O)N([C@H](C)CO)C[C@H]1C	-0.01	10	-16	x
C[C@H]1CN([C@@H](C)CO)C(=O)Cc2cc(NS(=O)(=O)c3cccs3)ccc2O[C@H]1CN(C)CC1CCCCC1	-0.3	-6	21	3.2
C[C@@H]1CCCCO[C@H](CN(C)S(=O)(=O)c2ccc(F)cc2)[C@@H](C)CN([C@H](C)CO)C(=O)c2cc(NC(=O)Nc3cccc4ccccc34)ccc2O1	-0.31	-2	61	-4.3
COc1ccc(NC(=O)N(C)C[C@H]2Oc3ccc(NC(=O)CCN4CCOCC4)cc3C(=O)N([C@H](C)CO)C[C@@H]2C)cc1	0.35	-4	12	x
C[C@H](CO)N1C[C@H](C)[C@@H](CN(C)S(=O)(=O)c2ccc(Cl)cc2)Oc2ccc(NC(=O)c3ccncc3)cc2C1=O	0.17	-13	x	1.0
C[C@@H]1CN([C@@H](C)CO)C(=O)c2cc(NS(C)(=O)=O)ccc2O[C@@H]1CN(C)S(=O)(=O)c1ccc(F)cc1	0.09	3	-14	0.1
C[C@@H]1CN([C@@H](C)CO)C(=O)c2cccc(NS(C)(=O)=O)c2O[C@@H]1CN(C)Cc1ccc(-c2ccccc2)cc1	0.74	0	-9	3.0
COc1ccc(NC(=O)N(C)C[C@@H]2Oc3ccc(NS(=O)(=O)c4ccc(F)cc4)cc3C(=O)N([C@@H](C)CO)C[C@H]2C)cc1	-0.26	0	4	0.8
Cn1c(=O)c2c(nc(NCc3cccnc3)n2Cc2cccc(Br)c2)n(C)c1=O	x	10	x	-2.5
COc1ccc(NC(=O)N(C)C[C@H]2OCCCC[C@@H](C)Oc3ccc(NC(=O)CCCN(C)C)cc3C(=O)N([C@H](C)CO)C[C@@H]2C)cc1	0.09	-6	x	0.5
COc1ccc(OC)c(NC(=O)CSc2nc(C)cc(C)n2)c1	x	6	x	-0.6
CCOC(=O)c1sc(NC(=S)Nc2ccc3c(c2)OCCO3)c(C(=O)OCC)c1C	x	-43	x	-5.6
COc1ccc(OC(C)C(=O)Nc2cc3oc4ccccc4c3cc2OC)cc1 (stereo not drawn)	x	-16	x	-1.0
COc1ccc(NC(=O)Nc2cccc3c2O[C@H](CN(C)S(=O)(=O)c2cccs2)[C@H](C)CN([C@H](C)CO)C3=O)cc1	-0.22	-26	17	x
CNC[C@@H]1OCCCC[C@@H](C)Oc2ccc(NC(=O)Nc3ccc(C(F)(F)F)cc3)cc2C(=O)N([C@H](C)CO)C[C@@H]1C	0.22	-8	-21	0.8
C[C@@H]1CN([C@H](C)CO)C(=O)Cc2cc(NC(=O)CCC(F)(F)F)ccc2O[C@H]1CN(C)Cc1ccc(C(=O)Nc2ccccc2N)cc1	0.085	-20	x	-1.9
CN1C(=O)CC(n2c(CO)nc3ccccc32)C1=O (stereo not drawn)	x	-25	x	2.5
Cc1noc(C)c1S(=O)(=O)Nc1ccc2c(c1)C(=O)N([C@@H](C)CO)C[C@H](C)[C@@H](CN(C)C(=O)Nc1ccccc1)O2	0.17	4	x	x
COc1ccc(NC(=O)Nc2ccc3c(c2)C(=O)N([C@H](C)CO)C[C@H](C)[C@@H](CN(C)S(C)(=O)=O)O3)cc1	0.19	3	24	x
Cc1ccc2c(=O)cc(-c3ccc(F)cc3)oc2c1	-0.46	-66	x	1.8
C[C@@H]1CN([C@@H](C)CO)C(=O)c2cccc(NC(=O)Nc3ccc(F)cc3)c2O[C@H]1CN(C)S(=O)(=O)c1cccs1	-0.33	-9	-45	x

Quoted from the listing:
C[C@@H]1CN([C@@H](C)CO)C(=O)c2cccc(NS(C)(=O)=O)c2O[C@@H]1CN(C)Cc1ccc(-c2ccccc2)cc1 in PD-1 reversal: 3.0
C[C@@H]1CCCCO[C@H](CN(C)S(=O)(=O)c2ccc(F)cc2)[C@@H](C)CN([C@H](C)CO)C(=O)c2cc(NC(=O)Nc3cccc4ccccc34)ccc2O1 in YB-1 expr inh: -0.31

Screening data (PubChem BioAssay)
